Mtb betalactam: beta-lactam sensitization of Mtb H37Rv; 330,000 tested, 0.27% active; AID 434955; inhibition, % at 25 µM; M. tuberculosis H37Rv growth with meropenem, percent inhibition; hits of this screen are not shown here;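 active = about 74% or more and at least 40 points above the plate without the antibiotic, then above 30% in a dose series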;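 also: growth measured after seven days incubation then overnight dye step; 0% = bacteria only wells and 100% = bacteria with antibiotic; twin plates without the antibiotic show which effects depend on it; some results filed as inactive read as strong as hits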
RecA intein inh: inhibitors of M. tuberculosis RecA intein splicing | P9WHJ3 | cell-free RecA intein splicing, fluorescence | inhibition, %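 (about 9 µM by stock and volumes)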 | 290,000 tested, 0.75% active | AID 2221; in the data active = inhibition above about 30%;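 also: 0% = vehicle wells and 100% = reference inhibitor control wells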
Target sequence (P9WHJ3 whole entry, looked up): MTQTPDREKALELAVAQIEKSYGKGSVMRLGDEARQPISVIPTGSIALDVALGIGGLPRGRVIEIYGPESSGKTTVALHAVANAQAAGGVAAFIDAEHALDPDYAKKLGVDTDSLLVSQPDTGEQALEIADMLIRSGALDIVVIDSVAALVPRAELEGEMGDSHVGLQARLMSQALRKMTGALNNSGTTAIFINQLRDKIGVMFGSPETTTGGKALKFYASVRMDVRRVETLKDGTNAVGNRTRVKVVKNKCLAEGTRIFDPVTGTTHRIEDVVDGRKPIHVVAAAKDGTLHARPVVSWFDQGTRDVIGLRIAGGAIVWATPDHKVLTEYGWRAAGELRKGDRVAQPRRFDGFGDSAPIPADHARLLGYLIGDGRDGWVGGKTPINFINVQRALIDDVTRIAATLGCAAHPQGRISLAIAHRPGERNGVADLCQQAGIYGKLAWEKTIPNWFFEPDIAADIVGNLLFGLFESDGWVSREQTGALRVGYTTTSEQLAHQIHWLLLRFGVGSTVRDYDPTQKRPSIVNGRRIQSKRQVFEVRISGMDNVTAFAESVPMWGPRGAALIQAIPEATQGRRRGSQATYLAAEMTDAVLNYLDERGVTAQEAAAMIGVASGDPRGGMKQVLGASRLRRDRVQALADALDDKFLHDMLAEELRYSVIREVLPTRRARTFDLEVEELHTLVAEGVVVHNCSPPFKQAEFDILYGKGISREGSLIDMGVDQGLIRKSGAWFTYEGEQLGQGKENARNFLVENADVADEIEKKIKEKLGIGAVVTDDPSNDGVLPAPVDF
Mtb growth: M. tuberculosis H37Rv growth inhibitors, H37Rv strain (AID 1626); M. tuberculosis H37Rv growth inhibition; higher % means a stronger effect; inhibition, % at 10 µM; hits with a dose series show IC50 in µM; 220,000 tested, 0.95% active;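 active = confirmed in a dose series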;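 also: bacteria incubated seven days before Alamar blue readout; 0% = bacteria only wells and 100% = bacteria with antibiotic wells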
YopH inh: YopH (Yersinia) phosphatase inhibition. fluorescence Ex485/Em525. inhibition, %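 (about 10 µM by stock and volumes)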. 140,000 tested, 0.16% active. AID 898;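 active = inhibition of 50% or more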;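 also: controls were vehicle for no effect and minimum signal wells for full effect; inactives centre near -20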
Arbovirus anti: arbovirus infection inhibition | arbovirus infection cell-based antiviral screen | inhibition, % at 10 µM | 200,000 tested, 0.37% active;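 active = inhibition from about 30%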;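 also: bluetongue infection of BSR cells; cell survival read as ATP light after 72 h; 0% = infected wells without compound and 100% = uninfected wells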
Arbovirus anti repeat: further read-out of Arbovirus anti, marked with its call; inhibition, %; measured here: 10K subset replicate screen; many hits read low in the repeat;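 first of two repeat runs on a subset; 0% = infected and 100% = uninfected wells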
Starred values were filed as active, the others as inactive; . = not tested or not shown. Some of the compounds tested; the hit share may differ from the screen's.

SMILES	Mtb betalactam	RecA intein inh	Mtb growth	YopH inh	Arbovirus anti	others
COC(=O)c1ccc(NC(=O)CCN2CCN(Cc3ccccc3)CC2)cc1	7	.	2%	-13	-5
CCOC(=O)c1sc(NC(=O)CSc2nc3c(c(=O)n2-c2ccc(C)cc2)SCC3)c(C(=O)OCC)c1C	-2	2.0	5%	-33	-10
Cc1nc(CNS(=O)(=O)c2ccc3c(c2)CCCC3)cs1	-3	-5.3	-4%	-36	-3	Arbovirus anti repeat=3
NNC(=O)c1nc(Cl)c(Cl)c(N)c1Cl	0	-3.7	-7%	.	.
CN(C)c1ccc(/C=C/C(=O)c2ccc3c(c2)OCCO3)cc1[N+](=O)[O-]	17	2.0	10%	-24	23
CCOC(=O)c1c(C)c(C(=O)N2CCN(c3ccc(F)cc3)CC2)c(C)n1C	2	-0.5	11%	.	0
COCCN(C(=O)C(C)C)c1nnc(-c2ccc(C)cc2)s1	0	.	5%	-152	-4
O=S(=O)(c1cccs1)n1nnc2ccccc21	50	-1.4	-1%	-22	9	Arbovirus anti repeat=-1
COc1ccc(C)cc1C(=O)CCC(=O)NC1CCCCC1	3	-1.7	5%	.	3
CC(C)(C)OC(=O)N1CCC[C@H]1C(=O)NCC1CCC(C(=O)O)CC1 (stereo not given in full)	-5	2.1	-12%	-17	8
NS(=O)(=O)c1ccc(CCNCC(=O)NC2CC2)cc1	-3	1.6	-11%	.	.
CCOc1cc2[nH]c(=S)n(CCCC(=O)N3CCC4(CC3)OCCO4)c(=O)c2cc1OCC	-6	-1.4	-5%	-38	6
CCO[C@@H]1OC(C(=O)N2CCOCC2)=C[C@H](c2ccc(Br)cc2)[C@H]1CCCO	-5	-2.6	-16%	.	1
CCCNc1c(NC(C)=O)c(=O)oc2ccccc12	-4	0.0	5%	-51	0
CC(C(=O)Nc1cccc(C#N)c1)N(C)CCOc1ccccc1 (stereo not given)	-4	-0.9	.	.	.
CC1=C(CC(=O)NCC(=O)NCC(=O)O)c2cc(F)ccc2/C1=C/c1ccc(S(C)=O)cc1 (stereo not given)	-1	1.4	.	.	.
CN(Cc1ccc(F)cc1)C(=O)c1ccc(NC(=O)CC2SC(N3CCCC3)=NC2=O)cc1 (stereo not given)	-8	5.9	.	.	.
COc1cc2c(c3oc(=O)cc(CC(=O)O)c13)CCC(C)(C)O2	2	0.5	.	.	.
Cc1ccc(-c2csc(C(C#N)=C3CCCC3)n2)cc1	1	-0.1	2%	-139	0
COc1cc(/C=C2\SC(N)=NC2=O)cc(Br)c1O	0	-13	.	.	.
COc1ccc(CNC(=O)C2CC=CCC2C(=O)O)cc1OC (stereo not given)	-16	-2.3	-4%	-30	-2
O=C(NCc1ccc2c(c1)OCO2)Nc1ccc2ccccc2c1	.	-5.6	3%	.	.
Cc1ccc(OCC(=O)NC(=S)Nc2ccccn2)c(Br)c1	-12	0.0	.	.	.
CSc1nc(N2CCOCC2)cc(N2CCOCC2)n1	-5	-2.5	4%	.	-2
COc1ccc(/C=C/C(=O)Nc2cc(C(F)(F)F)ccc2Cl)cc1OC	11	3.0	17%	-15	32*
CC(C)Cc1nc2sc3c(=O)[nH]cnc3c2c2c1CCC2	6	3.3	0%	-25	5
O=c1c2ccccc2cnn1Cc1n[nH]c(=S)n1-c1ccccc1F	1	-2.0	-2%	.	.
Cc1nnc(SCC(=O)Nc2nccs2)o1	44	-0.6	.	.	.
CCOC(=O)CNC(=O)CSc1nnnn1-c1cc(C)ccc1C	31	4.3	-3%	0	-1
Cc1ccc(NC(=O)CSc2nnc(N)s2)c([N+](=O)[O-])c1	-4	1.6	-2%	.	-3
COc1ccc(COC(=O)NNC(=O)c2ccccc2Cl)cc1	-7	0.7	3%	15	2
N#CCCn1cc(C(=O)Nc2ccc([N+](=O)[O-])cc2)c(-c2cccs2)n1	11	.	4%	-23	4
CCOC(=O)N1CCC(NC(=O)c2cccnc2SC)CC1	-4	.	-10%	-17	3
CC(=O)Nc1cccc(-c2nnc3c4ccccc4c(C)nn23)c1	-4	1.5	-1%	.	0
Cc1cccc(C(=O)N/C(=C\c2ccco2)C(=O)N2CCCC2)c1	1	1.8	.	.	.
Cc1ccc2nc(C(=O)N3CCc4c([nH]c5ccccc45)C3c3ccccn3)cn2c1 (stereo not given)	20	2.4	3%	.	-7
CCOC(=O)C1C(=O)NC(c2ccccc2)=NC1c1ccc(C(C)C)cc1 (stereo not given)	-4	.	0%	-24	-2
CC(=O)N1c2ccc(S(=O)(=O)NCCc3ccccc3)cc2CC1C (stereo not given)	3	-2.3	.	.	.
c1ccc(-c2csc3ncn4cnnc4c23)cc1	3	1.9	-2%	-22	9	Arbovirus anti repeat=7
CCNC(=O)NC(=O)C(C)OC(=O)CCS(=O)(=O)c1ccc(C)cc1 (stereo not given)	-4	.	-4%	.	-1
COc1cccc(-n2nnnc2SCC(=O)NCc2ccco2)c1	-3	6.4	-4%	-14	-4
CCn1c(CC(=O)Nc2ccccc2)nnc1SCC(=O)Nc1nnc(C)s1	-3	-0.1	.	.	.
COc1cccc(N2C(=O)C3CCCN3C2c2ccc(F)cc2)c1 (stereo not given)	0	-4.3	-11%	-31	-3
O=C(CSc1ncccc1C(=O)O)NC1CCCCCCC1	-2	2.0	-4%	.	.
Cc1cc(C(=O)COC(=O)c2ccc(CO)cc2)c(C)n1CC1COc2ccccc2O1 (stereo not given)	18	6.1	9%	-23	-4
CCc1cc(CNC(=O)CC2C(=O)NCCN2CC2CCCCC2)on1 (stereo not given)	1	-0.1	-3%	.	-2
O=C1NC(=O)C(=C2CCCCCC2)S1	-2	0.5	-4%	-24	1
CCN(CC)S(=O)(=O)c1ccc(NCc2ccccn2)nc1	-6	0.0	.	.	.
CCOC(=O)C(=CNc1ccc2c(c1)c1ccccc1n2CC)C(=O)OCC	.	-0.8	-11%	.	.
CCCCNc1cc(NC(C)=O)cc2cc(OC)c(OC)cc12	6	.	-1%	80*	-12
COc1ccc(CN(C)C(=O)c2ccc(NS(=O)(=O)c3ccc(F)cc3)cc2)c(OC)c1	7	8.2	.	.	.
N#CC1=C(N)Oc2c(c(=O)sc3ccccc23)C1c1ccncc1 (stereo not given)	5	2.5	-8%	.	-8
COc1cccc(CN2CCN(C(=S)NCc3ccc(Cl)cc3)CC2)c1	30	2.9	0%	.	-21
COC(=O)c1cc(Oc2ccc(C(=O)OC)cc2N)cc(C(=O)OC)c1	-3	0.1	-6%	-2	4
CSc1ccc(S(=O)(=O)NCCCn2ccnc2)cc1	-2	0.0	.	.	.
O=C(OCc1ccc([N+](=O)[O-])cc1)C1CCN(S(=O)(=O)c2ccccc2)CC1	-5	-0.3	-6%	8	2
Oc1c(Br)cc(Br)cc1C=NCc1ccc(F)cc1	1	-3.9	3%	.	2
NC(=O)CC(NC(=O)Cc1ccc(Br)cc1)c1ccc(NC2CC3CCC2C3)c([N+](=O)[O-])c1 (stereo not given)	98	4.7	.	.	.
CCc1nc(C)cn1S(=O)(=O)c1cc(Br)ccc1OC	-2	-1.9	5%	-46	2
CN(C)c1ccc(-c2noc(C3CCN(S(=O)(=O)c4cccc(C(=O)O)c4)CC3)n2)cc1	-8	0.4	-1%	-18	-3

The listing continues:
SMILES	Mtb betalactam	RecA intein inh	Mtb growth	YopH inh	Arbovirus anti	others
CCOC(=O)c1c(N2C(=O)CC(Sc3ccccc3C(=O)O)C2=O)sc(C)c1C (stereo not given)	-5	3.1	-12%	.	.
CCN(CC(=O)Nc1cc(Cl)ccc1C)C(=O)COc1ccccc1F	15	-1.6	-10%	.	23
CCOC(=O)C1CCCN(c2ncnc3c2cnn3-c2ccc(Cl)cc2)C1 (stereo not given)	.	12	58%	-12	-2
COc1ccc(S(=O)(=O)N(CCc2ccccc2)CC(=O)N2CCOCC2)cc1	-8	0.9	2%	-42	-3	Arbovirus anti repeat=4
COc1ccc(F)cc1CN1CCN(c2ncnc3scc(-c4ccccc4)c23)CC1	90	0.3	31%	.	.
CCC(=O)Nc1cc2nn(-c3ccc(C)cc3)nc2cc1C	1	.	3%	.	8
CCc1nn(CC(=O)N2CCN(c3ccc(OC)cc3)CC2)c(=O)c2cc3occc3n12	7	3.4	.	.	.
O=C(CN1CCN(S(=O)(=O)c2ccc(F)cc2)CC1)N1CCOCC1	3	1.8	.	.	.
CC(NC(=O)Cc1ccccc1)c1nc2ccccc2[nH]1 (stereo not given)	2	-3.7	1%	-16	3	Arbovirus anti repeat=5
Cc1c(Cl)ccc2sc(NC(=O)C3CC3)nc12	3	2.1	.	.	.
COc1cc(/C=N/Nc2nc(C)cc(C)n2)cc(OC)c1OC	8	-4.7	.	.	.
CC(C)CNC(=O)/C=C/c1cccs1	2	1.4	-6%	-12	-2
CC(=O)c1cccc(NC(=O)CCCN(C)S(=O)(=O)c2ccc(F)cc2)c1	-6	0.9	.	.	.
O=C(Nc1sc2c(c1C(=O)NCCCO)CCCC2)c1ccccc1	3	0.4	.	.	.
CN1CCN(C(c2cccs2)c2nnnn2Cc2ccc(F)cc2)CC1 (stereo not given)	-4	-4.2	-6%	.	1
CCOc1cccc(CN2CCCC(N3CCc4cc(OC)c(OC)cc4C3)C2)c1O (stereo not given)	14	-8.5	.	.	.
Oc1[nH]c2ccccc2c1N=Nc1ccc(C(F)(F)F)cn1	6	-3.2	.	-26	9
Cc1[nH]c2ccccc2c1C(=O)COC(=O)c1c(-c2ccccc2)noc1C	-2	17	-1%	-17	1
C=CCNC(=O)NC(=O)COC(=O)/C(C#N)=C/c1cc(C)n(CC(C)C)c1C	-11	-14	-8%	-4	4
COCCCn1c(=S)[nH]c2c(sc3ccccc32)c1=O	-3	0.5	12%	.	1
OC1/C(=C/c2ccccc2F)N2CCC1CC2 (stereo not given)	2	1.2	-2%	.	7
COC(=O)c1cc(S(=O)(=O)n2nc(C)cc2C)c(Cl)cc1Cl	-12	-0.5	2%	.	.
Cc1ccc(Nc2nc(-c3ccc(O)cc3O)cs2)nc1	5	9.5	3%	.	-32
Cc1c(C(=O)c2ccc(Cl)cc2[N+](=O)[O-])c2ccccn2c1CCC#N	-2	2.7	-2%	-35	3
O=P(O)(CP(=O)(c1ccccc1)c1ccccc1)c1ccccc1	-1	-1.9	5%	-33	10
CCc1n(CC(O)COCC2CC=CCC2)c2ccccc2[n+]1C (stereo not given)	-6	-0.2	-1%	.	-2
COc1ccc2nc(SCC(=O)NC(C)C)[nH]c2c1	-1	-0.3	-5%	8	4
CC(C)COc1cccc(-c2cc(C(=O)Nc3ccon3)c3ccccc3n2)c1	57	3.5	.	.	.
O=C(O)c1cc(S(=O)(=O)N2CCN(S(=O)(=O)c3ccccc3)CC2)ccc1Cl	-2	-0.7	.	.	.
COc1ccc(N/C(=N/c2nc(C)cc(C)n2)NC(=O)c2ccccc2)cc1	-1	4.6	5%	.	.
CCCCN(C)CCCNC(=O)c1cn(CC)c2ccc(S(=O)(=O)N3CCc4ccccc4C3)cc2c1=O	5	0.8	1%	.	-27
COc1ccc(NC2CCCN(C(=O)c3ccc(C(C)=O)cc3)C2)cc1 (stereo not given)	-5	-5.2	.	.	.
CCOCCCNC1=C(Cl)C(=O)c2ccccc2C1=O	1	20	2%	.	.
O=c1[nH]c2c(c(=O)n1C1CCCCC1)CCC2	-9	-0.4	8%	-2	-6
CCOC(=O)Cn1nnnc1C	-17	5.2	-3%	.	4
CC(=O)C1=C(C)NC(SCC(=O)Nc2nccs2)=C(C#N)C1c1ccccc1Cl (stereo not given)	15	0.3	7%	-30	3
CC(C)CCCN1C(Nc2ccccc2)=NC[C@@H]1Cc1ccccc1	4	0.4	.	.	.
CCOc1ccc(S(=O)(=O)N(CC(=O)N/N=C/c2cccs2)c2ccc(C)cc2)cc1	7	0.7	13%	-38	-13
N=C(N)CCCOc1ccccc1-c1ccccc1	-1	1.5	4%	1	2
CCCc1c(O)nc(SCC(=O)NCc2ccco2)[nH]c1=O	-1	-3.9	-2%	.	6

At a glance, 2 of the compounds above:
SMILES	Mtb betalactam	RecA intein inh	Mtb growth	YopH inh	Arbovirus anti	others
CCCCN(C)CCCNC(=O)c1cn(CC)c2ccc(S(=O)(=O)N3CCc4ccccc4C3)cc2c1=O	5	0.8	1%	.	-27
COc1ccc(NC2CCCN(C(=O)c3ccc(C(C)=O)cc3)C2)cc1 (stereo not given)	-5	-5.2	.	.	.

A draw from above in order of length of the SMILES, largest number first.
SMILES	Mtb betalactam	RecA intein inh	Mtb growth	YopH inh	Arbovirus anti	others
O=C(O)c1cc(S(=O)(=O)N2CCN(S(=O)(=O)c3ccccc3)CC2)ccc1Cl	-2	-0.7	.	.	.
COc1ccc(S(=O)(=O)N(CCc2ccccc2)CC(=O)N2CCOCC2)cc1	-8	0.9	2%	-42	-3	Arbovirus anti repeat=4
CCOC(=O)CNC(=O)CSc1nnnn1-c1cc(C)ccc1C	31	4.3	-3%	0	-1
CCC(=O)Nc1cc2nn(-c3ccc(C)cc3)nc2cc1C	1	.	3%	.	8
COc1ccc2nc(SCC(=O)NC(C)C)[nH]c2c1	-1	-0.3	-5%	8	4
c1ccc(-c2csc3ncn4cnnc4c23)cc1	3	1.9	-2%	-22	9	Arbovirus anti repeat=7

Bioassay records: PubChem, several laboratories
